# Assay outcomes from PubChem.
# MgrA-DNA mod = alters Staphylococcus aureus MgrA binding to DNA | fluorescence polarization | inhibition, %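 (about 10 µg/mL by stock and volumes)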 | 0.13% of 84,000 active;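 active means above 50% in either of two replicates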;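 further: 0% = protein plus DNA without compound and 100% = DNA alone without protein; higher means less MgrA bound to DNA so lower polarization; one replicate is shown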
# S aureus helic = blocks Staphylococcus aureus DNA helicase | purified S. aureus helicase, fluorescence unwinding assay; about half of the hits fall short of the stated cut | inhibition, %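 (tested at about 80 µM)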 | 0.05% of 120,000 active;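 active means both duplicates at 50% or more, or one of them with a favoured structure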;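 further: 0% = mean of negative control wells and 100% = mean of positive control wells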
# * marks the source's active call; other numbers are inactive results; x = not tested or not shown. The list is partial; the hit share may differ from the screen's.
canonical_smiles,MgrA-DNA mod,S aureus helic
Cc1ccc(-c2n[nH]c(=O)c3ccccc23)cc1S(=O)(=O)N1CCCC1,x,18.0
O=C(NCCCn1ccnc1)c1cccc(S(=O)(=O)Nc2ccccc2F)c1,x,-7.0
CCCCS(=O)(=O)N1CCc2ccccc2C1,1.2,2.0
O=C1c2ccccc2C(=O)N1CSc1ncnc2sc3c(c12)CCCC3,-0.6,x
O=C(COc1ccccc1F)Nc1ccccc1O,-0.5,4.0
CN(C)c1ccc(C(O)C(=O)c2ccccc2)cc1 (stereo not given),0.7,2.0
CC1CCCCN1C(=O)CCc1nc2ccccc2n1-c1ccccc1 (stereo not given),x,16.0
COc1ccc(N2CC(NS(C)(=O)=O)CC2=O)cc1 (stereo not given),x,7.0
O=C(NCc1csc2ccccc12)c1cccs1,0.2,x
CN1CCN(C(=O)c2nn3c(c2Cl)NC(c2ccc(Br)cc2)CC3C(F)(F)F)CC1 (stereo not given),-0.7,x

# Next part.
canonical_smiles,MgrA-DNA mod,S aureus helic
O=C(NCc1ccco1)NC(=O)c1ccc(-c2csnn2)cc1,0.5,x
CC(C)(CSc1nncn1/N=C/c1ccco1)NS(=O)(=O)c1ccc(Cl)cc1,x,-10.0
CCOC(=O)N1CCN(CC(=O)Nc2cc(C)nn2-c2nc3ccccc3s2)CC1,x,-9.0
Cc1ccc(Oc2ncccc2NC(=O)CC(CC(=O)O)c2ccccc2)c2c1CCC2 (stereo not given),0.0,x
CCOC(Cn1c2ccccc2c2ccccc21)OCC,-1.2,x
O=C1/C(=C/c2ccc(N3CCOCC3)cc2)CC/C1=C\c1ccc(N2CCOCC2)cc1,-4.4,-55.0
Cc1ccc(Cn2c(=O)n(C3CCCC3)c(=O)c3ccccc32)c(C)c1,x,-16.0
CCn1c(C)nc2cc(C(=O)n3cc(C(=O)c4ccccc4O)cn3)ccc21,x,6.0
Oc1cccc(N=Cc2ccc(N3CCOCC3)cc2)c1,-1.4,-9.0
CN1CCCN(C(=O)C2CCCO2)CC1 (stereo not given),-2.8,-11.0

# (listing goes on)
canonical_smiles,MgrA-DNA mod,S aureus helic
CCCCN(C)C(=O)c1noc2c1CCCCC2,x,7.0
CC(=O)N1CCN(C(=O)c2cncc(Br)c2)CC1,3.9,-13.0
C(=N\n1cnnc1)/c1ccc(N(c2ccccc2)c2ccccc2)cc1,1.1,13.0
Cc1cccc(-n2c(C)c(C)c3c(N)ncnc32)c1,x,7.0
O=C1CSCN1c1ccc(Oc2ccccc2)cc1,0.2,x
OCCN1CCN(CCSc2ccccc2)CC1,x,4.0
CCOC(=O)CSc1nc2ccccc2c(=O)n1CCN1CCOCC1,3.0,13.0
COc1ccc(C(=O)CN2CCC(N3CCCCC3)CC2)cc1,-21.3,5.0
CNC(=O)CSc1nnc(-c2ccc(C(C)(C)C)cc2)n1-c1ccccc1,-1.8,-19.0
CC(=O)N1CC(C(=O)O)Oc2ccc(Cl)cc21 (stereo not given),x,16.0

# Remaining list, next part
canonical_smiles,MgrA-DNA mod,S aureus helic
CS(=O)(=O)c1sc(C#N)c2c1C(=O)CCC2,x,4.0
Cc1ccc(C(=O)Nc2ccc3[nH]cc(C#N)c3c2)cc1,3.5,x
CN1/C(=C\P(=O)(c2ccccc2)N2CCOCC2)C(C)(C)c2ccccc21 (stereo not given),x,13.0
CCOC(=O)c1c(NC(C)=O)[nH]c2ccc(OC)cc12,x,-24.0
CCCn1c(O)c(N=O)c2ccccc21,-0.5,1.0
Cc1sc2nc(C3(C#N)Cc4ccccc4N4CCCC43)[nH]c(=O)c2c1C (stereo not given),x,-46.0
Cc1ccc(-c2csc(=NC(C)(C)C)n2-c2c(C)n(C)n(-c3ccccc3)c2=O)cc1,x,8.0
CCN(CC)c1ccc(NC(=O)CSc2nc(C)cc(=O)[nH]2)cc1,4.5,22.0
O=C(/C=C/c1ccccc1)C1=C(O)C(=O)N(CCO)C1c1ccc(F)cc1 (stereo not given),0.7,-7.0
CCOC(=O)C1CCN(/C(C)=C\C(=O)C(F)(F)F)CC1,x,-7.0

# The last two entries of the section before lead into the next.
canonical_smiles,MgrA-DNA mod,S aureus helic
O=C(/C=C/c1ccccc1)C1=C(O)C(=O)N(CCO)C1c1ccc(F)cc1 (stereo not given),0.7,-7.0
CCOC(=O)C1CCN(/C(C)=C\C(=O)C(F)(F)F)CC1,x,-7.0
CC1CCCCN1S(=O)(=O)c1ccc(C(=O)Nc2cccc(-c3nc4ccccc4[nH]3)c2)cc1 (stereo not given),1.3,0.0
CCc1ccc(NC(=O)NCC2CCN(c3ccc(OC)cc3)C2)cc1 (stereo not given),x,-2.0
CC(C)N(C(=O)CSCc1ccc(Cl)cc1)c1ccccc1,-0.2,16.0
CC1CCC2C(=O)N(c3ccc(C(C)(C)C)cc3)C(=O)C2C1 (stereo not given),0.1,x
COc1cc(CO)cc(Br)c1OCC(=O)O,x,9.0
CCN(CC)c1ccc(C(=O)NCCO)cc1,-3.5,2.0
Cc1oc2ncn3nc(-c4ccncc4)nc3c2c1C,x,9.0
Cc1ccc(-n2c(SC3CCCC3=O)nnc2-c2ccncc2)cc1C (stereo not given),x,21.0
Cc1ccc(S(=O)(=O)Nc2nc3ccccc3nc2N2CC(C)OC(C)C2)cc1 (stereo not given),x,29.0
CCOc1ccccc1N1C(=O)CC(Nc2ccccc2)C1=O (stereo not given),x,13.0

# (more compounds)
canonical_smiles,MgrA-DNA mod,S aureus helic
Cc1ccc(/C=C/c2onc3c(=O)[nH]nc(C)c23)cc1,-0.8,x
Cc1cc(Nc2cnn(-c3nc4ccccc4o3)c(=O)c2Cl)ccc1Br,1.2,-8.0
C=CCNc1ncnc2c1cnn2-c1cccc(Cl)c1,x,-6.0
O=C(COc1ccccc1O)c1ccccc1,-3.2,-6.0
COc1cccc(C2N(c3ccccc3)C(=O)N3CCCN23)c1 (stereo not given),x,23.0
O=C(c1cccc(C(=O)N2CCCCC2)c1F)N1CCCCC1,-1.8,x
Cc1ccc(NC(C)C(=O)Nc2cccc(C(F)(F)F)c2)cc1 (stereo not given),-0.1,-17.0
COc1ccc(Nc2[nH]nc(NC(=O)COc3ccc(Cl)cc3)c2C#N)cc1,x,-3.0
Cn1ccc2c(OCC(N)=O)cccc2c1=O,x,15.0
COc1ccccc1NC(=S)N1CCCCC1CO (stereo not given),-2.0,-2.0

# Structures shown so far that contain fluorine, in the order listed:
canonical_smiles,MgrA-DNA mod,S aureus helic
O=C(NCCCn1ccnc1)c1cccc(S(=O)(=O)Nc2ccccc2F)c1,x,-7.0
O=C(COc1ccccc1F)Nc1ccccc1O,-0.5,4.0
CN1CCN(C(=O)c2nn3c(c2Cl)NC(c2ccc(Br)cc2)CC3C(F)(F)F)CC1 (stereo not given),-0.7,x
O=C(/C=C/c1ccccc1)C1=C(O)C(=O)N(CCO)C1c1ccc(F)cc1 (stereo not given),0.7,-7.0
CCOC(=O)C1CCN(/C(C)=C\C(=O)C(F)(F)F)CC1,x,-7.0
O=C(c1cccc(C(=O)N2CCCCC2)c1F)N1CCCCC1,-1.8,x
Cc1ccc(NC(C)C(=O)Nc2cccc(C(F)(F)F)c2)cc1 (stereo not given),-0.1,-17.0

# (continued)
canonical_smiles,MgrA-DNA mod,S aureus helic
N#Cc1ccc(COC(=O)CC2Oc3ccccc3NC2=O)cc1 (stereo not given),x,7.0
COC(=O)Cc1nc(NS(=O)(=O)c2cccc(C)c2)sc1C,0.1,x
CC1(C)CC2=NN(c3ccccc3)P(=O)(N3CCCCC3)C2=C(N2CCOCC2)C1 (stereo not given),x,-8.0
CC(=O)Nc1ccccc1-c1ccc(C)o1,2.8,18.0
CCCCNc1ncc2c(n1)CC(c1ccccc1)CC2=O (stereo not given),1.4,3.0
CCN(C(=O)CSc1nnc(C)c(=O)[nH]1)C1CCCCC1,x,13.0
Cc1c(C(C)C)c(=O)n(-c2ccc(S(=O)(=O)NC(C)C)cc2)n1C,-4.3,5.0
O=C(OCc1ccccc1)Sc1nnc(-c2ccc(Br)cc2)o1,x,3.0
CCOC(=O)c1cc(-c2ccccc2)n(CC(=O)N2CCc3ccccc32)c1C,0.8,-1.0
Cc1ccccc1CN(C)C(C)C(=O)NCc1ccccc1 (stereo not given),x,-7.0

# Later entries.
canonical_smiles,MgrA-DNA mod,S aureus helic
COC(=O)c1sc(-c2ccc(CC(C)C)cc2)cc1N,0.0,x
Cc1nn(C)c(C)c1NC(=O)COC(=O)c1n[nH]c(=O)c2ccccc12,x,-3.0
O=C(Cn1c(SCc2cccc(F)c2)nc2ccncc21)N1CCCCCC1,x,1.0
Cc1ccc(-c2nc(SCC(=O)NCc3ccco3)c(-c3ccc(F)cc3)[nH]2)cc1,x,22.0
CN(Cc1ccccc1)C(=S)NC(=O)c1ccccc1,1.7,-8.0
CN(Cc1ccccc1)C(=O)Cn1ncn2cccc2c1=O,-2.6,3.0
Cc1ccc(C)n1Cc1ccc(C(=O)O)cc1,x,-29.0
O=C(c1cccc2c1NC(c1ccc([N+](=O)[O-])cc1)C1CC=CC21)N1CCCC1 (stereo not given),4.2,x
CCCCN(C#N)c1nc(N2CCOCC2)nc(N2CCOCC2)n1,x,7.0
Nc1nc2ccccc2cc1-c1cccs1,-1.8,x

# Next part:
canonical_smiles,MgrA-DNA mod,S aureus helic
O=C(COC(=O)Cc1ccsc1)NC(c1ccccc1)c1ccccc1,1.5,-11.0
Cc1ccc(NC(=O)CC2SC(=NC(c3ccc(O)cc3)c3c(O)[nH]c(=O)[nH]c3=O)NC2=O)cc1 (stereo not given),x,17.0
O=C(COC(=O)C1CCN(S(=O)(=O)c2ccccc2)CC1)Nc1ccccc1C(=O)NC1CC1,x,-16.0
CCOC(=O)C(CC)Sc1nnc(NC(=O)Cc2cccs2)s1 (stereo not given),x,1.0
COC(=O)c1csc2c(C(F)(F)F)cc(N3CCN(C(=O)Nc4ccccc4)CC3)nc12,0.3,x
COc1cc(C2C3=C(CC(C)(C)CC3=O)OC3=C2C(=O)CC(C)(C)C3)cc(Br)c1OC,1.6,x
CC(C)C1C(C#N)=C(N)OC2=C1C(=O)CCC2 (stereo not given),-1.0,15.0
CC(=O)N1CCSc2cc(S(=O)(=O)NCc3ccccc3)ccc21,1.1,-7.0
c1ccc(N=C(c2cccs2)N2CCOCC2)cc1,0.9,2.0
O=C(NCc1csc2ccccc12)C1CC1,-2.8,x

# Further entries.
canonical_smiles,MgrA-DNA mod,S aureus helic
Cn1c(SCc2cccnc2)ncc(C(=O)Nc2ccc(F)cc2)c1=O,x,12.0
CCCn1cnc2c(cnn2-c2ccc(Cl)cc2)c1=O,x,-24.0
COc1ccccc1-c1cc(N)n(CCC#N)n1,-1.6,-5.0
O=C(c1ncn[nH]1)N1CCN(c2nc(-c3ccccc3)cs2)CC1,x,14.0
CC(C)/C=C1\CC/C(=C\c2ccncc2)C1=O,x,4.0
C=CCn1cc(/C=C2/SC(=O)N(CC(=O)OC)C2=O)c2ccccc21,4.6,3.0
CC(C)=C(NC(=O)c1ccccc1)C(=O)NN=C1CCN(Cc2ccccc2)CC1,x,-5.0
O=C(NCc1ccc2c(c1)OCO2)C12CC3CC(CC(C3)C1)C2,-0.3,0.0
CCN(CC)Cn1c(=S)oc2ccccc21,2.5,7.0
Cn1cccc1C(=O)NC(=O)CSc1nc2ncc(Cl)cc2[nH]1,x,-11.0

# Next section
canonical_smiles,MgrA-DNA mod,S aureus helic
CSc1ccc(OCOc2ccc(SC)cc2)cc1,0.9,x
COc1cc2nc(SCC(N)=O)n3nc(CCn4c(C)nc5ccccc54)nc3c2cc1OC,5.1,12.0
CNC(=S)N/N=C/c1cc(OC)c(OC)c(OC)c1,-0.2,x
NS(=O)(=O)c1ccc(N2CCOCC2)c(C(=O)O)c1,x,-9.0
Cc1nc(C(F)(F)F)ccc1NC(=O)c1ccc(C(F)(F)F)cc1,-0.3,x
COc1ccccc1CNC(=O)C1CCN(C(=O)c2ccco2)CC1,-4.8,12.0
CC1(C(=O)O)Cc2ccccc2C(=O)O1 (stereo not given),x,30.0
CCOC(=O)c1cc2c(nc1C)-c1cc(Cl)cc(Cl)c1OC2O (stereo not given),x,-5.0
CC(N=CC1=C(O)CNC1=O)c1ccccc1 (stereo not given),x,-17.0
COC(=O)c1cc(S(=O)(=O)NC2CCCCNC2=O)oc1C (stereo not given),x,-7.0

# Next entries follow.
canonical_smiles,MgrA-DNA mod,S aureus helic
CN(CC(=O)Nc1ccc(Cl)cc1)C(=O)Cn1nnc2ccccc2c1=O,x,10.0
Fc1cccc(Cl)c1CSC1=NCCN1,4.6,x
CCOc1ccc(/C=N/NC(=O)Cc2cc(=O)[nH][nH]2)cc1,x,29.0
O=C(NC(=S)N1CCCC1)C1CC1,x,-26.0
O=C1c2ccccc2C(O)(c2ncc[nH]2)N1CCO (stereo not given),x,13.0
CC(C)Nc1ccccn1,-0.7,21.0
Oc1ccccc1C1CC(c2cccc(Br)c2)=NC(c2ccc(Br)cc2)N1 (stereo not given),0.6,4.0
COc1ccccc1NC(=O)C(C)Nc1ccc(C)cc1C (stereo not given),x,-7.0
Cc1cc(C(=O)CC#N)c(C)n1CC(F)(F)F,x,-8.0
COc1ccc(CNc2cc(C)nc3ccc(OC)cc23)cc1,x,-11.0

# Further results.
canonical_smiles,MgrA-DNA mod,S aureus helic
COc1ccc(/C=C/C(=O)O)cc1S(=O)(=O)N(C)C,x,-17.0
CCOC(=O)CSc1sc(C(=O)OCC)c(N)c1C(=O)N1CCOCC1,x,-27.0
O=C(Nc1nc2ccc3ccccc3c2s1)c1ccccc1Cl,x,2.0
CCC(Sc1nnc(-c2cc3occc3n2C)n1-c1ccccc1C)C(=O)NC1CCCC1 (stereo not given),x,17.0
Cc1cc(OCC(=O)N(Cc2ccc(C(C)C)cc2)C2CCS(=O)(=O)C2)cc(C)c1Cl (stereo not given),2.2,12.0
COc1ccccc1C1OC(CSc2nc3ccccc3o2)=NN1C(C)=O (stereo not given),x,3.0
Cc1c(C(=O)N2CCOCC2)oc2c1-c1nn(CC(=O)NC3CCCCC3C)cc1CC2 (stereo not given),x,-16.0
CCc1ccnc(NC(=O)CC2(CC(=O)O)CCCC2)c1,-1.7,x
CCOc1ccc(NC(=O)N(CC(C)C)CC(C)C)cc1,3.7,11.0
